# Assay outcomes (PubChem)
# Vaccinia mCherry = qHTS for Stage-Specific Inhibitors of Vaccinia Orthopoxvirus: mCherry Reporter Primary qHTS. Vaccinia virus mCherry reporter infection, fluorescence; about a quarter of the inactives have no number. Potency, µM (top dose mostly 36.5 µM), inactives show at the highest dose activity change, negative = inhibition, hits mostly inhibitors. 310,000 tested, 0.63% active. AID 720579, 2013; active = well fitted inhibition curve with a large enough effect; inconclusive = small, poorly fitted or top-dose-only effect; inactive = no such curve, though single readings can be large or run the other way; tested in A549 cells; further: nearly all actives have a fitted effect of over 35% in size; inactives centre near -10
# Vaccinia Venus = qHTS for Stage-Specific Inhibitors of Vaccinia Orthopoxvirus: Venus Reporter Primary qHTS. Vaccinia virus Venus reporter expression, fluorescence. Potency, µM (doses to about 36.5 µM), inactives show at the top dose activity change, negative = inhibition, most hits filed as inhibitors. 330,000 tested, 0.46% active. AID 720580, 2013; active means well fitted inhibition curve with a large enough effect; inconclusive means small, poorly fitted or top-dose-only effect; inactive means no such curve, though single readings can be large or run the other way; tested in A549 cells; further: nearly all actives have a fitted effect of over 30% in size; inactives centre near -10
# * = called active by the depositor; i = inactive; ? = inconclusive; . = not tested or not shown; [ ] = dose if it differs, or a comment. On the % scale 0 is the no-effect control and ±100 the full control effect; potency means the concentration at half of the fitted maximal effect.
SMILES,Vaccinia mCherry,Vaccinia Venus
O=C(C[C@H]1C[C@H](C(=O)N2CCCCC2)[C@@]2(CCc3ccccc3)c3[nH]c4cc(-c5ccco5)ccc4c3CCN2C1=O)NCCC1=CCCCC1,?,-25%
Cc1cc(C)n(CCC(=O)N/N=C/c2ccc(O)cc2O)n1,20µM*,?
O=C(Cc1c(F)cccc1Cl)Nc1ncc([N+](=O)[O-])s1,-7%,-27%
O=[N+]([O-])c1cccc(S(=O)(=O)Nc2ccc(S(=O)(=O)N3CCCC3)cc2)c1,i,-8%
COc1ccc(N2CSC3=C(C#N)C(c4cc(OC)ccc4OC)CC(=O)N3C2)c(OC)c1 (centres undefined),2%,-17%
Cc1nc(NCCCN2CCOCC2)c2oc3ccccc3c2n1,8%,-6%
COc1ccc(CN(C)c2ccc(-c3nc(C)no3)cc2[N+](=O)[O-])cc1,-18%,-18%
Cc1nc2cc(C(=O)N3c4ccccc4CC3C)ccc2s1 (centres undefined),-7%,?
Cc1nc2ccccc2c2c1C(=O)N(c1ccc(C(=O)O)cc1)C2=O,i,-6%
Nc1c(-c2ccccc2)cnn1-c1cccc(C(F)(F)F)c1,.,-27%
C/C=C/CSc1nc2c(c(=O)[nH]c(=O)n2C)n1Cc1ccc(C)cc1,12%,-23%
CCOCCCNC(=O)c1c[nH]c2ccc(S(=O)(=O)Nc3cccc(OC)c3)cc2c1=O,-11%,-5%
CCCNC(=O)c1ccccc1SCc1c(C)noc1C,i,8%
O=S(=O)(NC(=NC1CCCCC1)c1ccccc1)c1ccc(F)cc1,i,-18%
COc1cc(NC(=O)CN(C)C2CCCCC2)c(C)cc1[N+](=O)[O-],-14%,-6%
Cc1ccc(-c2csc3nc4cc(C(N)=O)ccc4c(=O)n23)cc1,i,-18%
Cc1nc(NC(=O)CC(C)C)sc1-c1csc(Nc2ccc(Cl)cc2Cl)n1,-9%,-24%
Cc1nnc(SCC(=O)Nc2ccc(N(C)C)cc2)n(N)c1=O,-13%,-3%
CCOCCCn1c(=N)c(S(=O)(=O)c2ccc(C)cc2)cc2c(=O)n3ccccc3nc21,-21%,-13%
CCC(C)NC(=O)Cn1c(=O)n(CCCC(=O)NCc2ccccc2Cl)c(=O)c2ccccc21 (centres undefined),-17%,-6%
COc1ccc(N2CCN(C(=O)CCC(=O)N3CC(C)Oc4ccc(C)cc43)CC2)cc1 (centres undefined),?,-23%
CCOc1ccc(NC(=O)CCc2nc3cccnc3n2-c2ccccc2)cc1,-9%,-7%
O=C(O)/C=C/c1cn(-c2ccccc2)nc1-c1cc2ccccc2o1,i,-26%
Cc1csc(=O)n1CCC(=O)OCC(=O)c1c(N)n(C)c(=O)n(C)c1=O,-4%,-2%
Fc1ccc(N2CCN(Cc3ccc4c(c3)OCO4)CC2)cc1,-5%,-5%

# (continued)
SMILES,Vaccinia mCherry,Vaccinia Venus
COc1ccccc1C(=O)Nc1ccc(Nc2ccccc2)cc1,0%[7.34 µM],-10%[7.34 µM]
COc1ccc(-c2nnc(SCC(=O)NC3CCCC3)n2C)cc1,-3%,11%
CC(C)(C)c1ccc(S(=O)(=O)N2CC3CC(C2)c2cccc(=O)n2C3)cc1 (centres undefined),0%,-10%
COc1cc(NC(=O)C2CC2)c(OC)cc1NC(=O)c1ccco1,-4%,11%
Cc1noc(C)c1-c1ccc(C(=O)NCc2cccs2)c2occc12,i,-11%
COc1ccccc1NCC(=O)N/N=C/C=C/c1ccccc1,-16%,-14%
COc1cc(/C=N/Nc2nc(C)cc(=O)[nH]2)cc(OC)c1O,?,-9%
COc1ccc(CCNC(=O)c2ccc(CS(=O)Cc3ccc(C)cc3)o2)cc1OC (centres undefined),i,-7%
Cc1ccccc1NC(=O)CSc1nnc(Cc2cccn2C)n1-c1ccc(F)cc1,-10%,-8%
Cc1ccc(NC(=O)Nn2cnnc2)cc1Cl,-4%,-13%
COc1ccc(/C=N/Nc2nc(-c3ccc(Cl)cc3)cc(C(F)(F)F)n2)cc1OC,-28%,-16%
O=C(Nc1cccnc1Cl)c1cc(-c2ccc(Br)cc2)on1,-12%,-6%
O=C(O)c1cccc(CN2C(=O)S/C(=C/c3cccc([N+](=O)[O-])c3)C2=O)c1,-8%,-11%
CC(=O)Nc1ccc(C(=O)CSc2nnc(C)o2)cc1,.,-15%
O=C(OCc1cn([C@@H]2CN(CC3CCCCC3)[C@@H](c3ccc(Cl)cc3)C[C@H]2O)nn1)c1ccccc1,i,-10%
COC(=O)CC1C(C)(C)C(O)C2CC3=C4CC(O)OC(c5ccoc5)[C@]4(C)CCC3[C@@]1(C)C2=O (some centres undefined),-13%,?
CC(C)(C)OC(=O)N1CCC(c2c(C(=O)NCc3ccccc3)cnn2-c2cccc(F)c2)CC1,-15%,-9%
CC(C)(C)c1ccc(N/N=C(\C#N)S(=O)(=O)C(C)(C)C)cc1,-16%,-5%
CCc1cccc(CC)c1C(O)c1cccnc1 (centres undefined),-9%,-4%
O=C(c1ccc(=O)oc1)N1CCCc2ccccc21,-8%,1%
CCOC(=O)[C@H]1[C@H]2COc3ccc(Cl)cc3[C@@H]2N2C(=O)[C@@H](CO)NC(=O)[C@@]12C,3%,-6%
Cc1ccccc1/C=N/N1CCN(c2ccccc2)CC1,0%,-10%
COC(=O)c1ccc(COc2cc(O)c3c(c2)OC(C)(C)CC3=O)cc1,-17%,-10%
Cc1cc(NS(=O)(=O)c2ccccc2)c([N+](=O)[O-])cc1C,-9%,-10%
COc1ccc(-n2cnnc2SCC(=O)Nc2cc(S(=O)(=O)N3CCCCC3)ccc2C)cc1,-4%,-30%

# Other structures.
SMILES,Vaccinia mCherry,Vaccinia Venus
O=C(NCC(c1cccnc1)N1CCOCC1)C(=O)Nc1ccc(F)cc1 (centres undefined),-8%,-9%
CCOC(=O)N1CCC(Nc2c(OCC)c(=O)c2=O)CC1,-11%,-6%
COC(=O)c1cc(Cl)c(NS(=O)(=O)c2ccccc2)cc1OC,-13%,-3%
CC(C)(C)CC(=O)Nc1ccc(Nc2ccccc2)cc1,-19%,-10%
O=C(Cc1ccc(S(=O)(=O)N2CCOCC2)s1)N1CCN(S(=O)(=O)c2cccc(Cl)c2)CC1,-10%,-24%
CN1CCN(c2nc(-c3ccc(Cl)cc3)nc3ccccc23)CC1,-15%,-1%
CC(=O)c1cc(-c2ccccc2)n(CC(=O)NCc2cccs2)c1C,2%,0%
C[C@H](CO)N1C[C@H](C)[C@@H](CN(C)S(C)(=O)=O)Oc2ccc(NC(=O)NC3CCCCC3)cc2C1=O,i,4%
COc1cccc(C(O)c2ncc(-c3ccccc3Cl)[nH]2)c1 (centres undefined),14%,-17%
Fc1cccc(Cc2c(-c3ccco3)nc3c(Cl)cc(C(F)(F)F)cn23)c1,3%,-26%
CC(C)C[C@H](NC(=O)N1c2ccccc2NC(=O)[C@@H]1C(C)C)C(=O)N[C@@H](Cc1ccccc1)C(=O)O,-2%,8%
CC(C)c1nnc(NC(=O)c2cccnc2)s1,.,-4%
O=C(Nc1ccc(Cl)cc1)C1Cc2c(-c3cccc(F)c3)ccnc2O1 (centres undefined),8%,-8%
CCOc1ccc(CC(=O)Nc2cccc(-c3nc4cccnc4s3)c2C)cc1,-23%,-17%
Cc1onc(-c2ccccc2)c1C(=O)Nc1nnc(CC(C)C)s1,i,-2%
O=C(C[n+]1ccccc1)Nc1nc2ccccc2s1,-13%,-3%
CCC(=NNS(=O)(=O)c1ccc(C)cc1)c1ccccc1,i,-17%
CNC(=O)C1CCC(Cn2c(=O)c3sccc3n(CC(=O)N3CCCC3)c2=O)CC1 (centres undefined),2%,-3%
COc1ccc(OCCOC(=O)CNC(=O)c2ccc(Cl)cc2Cl)cc1,i,-14%
O=C(COC(=O)CCCNC(=O)c1ccc(Cl)cc1)NCc1ccccc1Cl,-17%,0%
CC(C)(C)c1ccc(COC(=O)CNC(=O)CNC(=O)Cc2ccccc2)cc1,-13%,-1%
COc1ccccc1NC(=O)CSc1nnnn1-c1ccc(C(=O)O)cc1,i,-3%
Cc1cc(N2CCN(C/C=C/c3ccccc3)CC2)n2ncnc2n1,i,-12%
CCN(C(=O)c1cc2c(=O)[nH]c3ccc(C)cc3c2s1)c1ccccc1C,1%,-8%
Nc1ccc2c(c1)C(=Cc1cccnc1)c1ccccc1-2,-10%,-23%

# Next section:
SMILES,Vaccinia mCherry,Vaccinia Venus
N#Cc1cc2c(=O)n3ccccc3nc2n(-c2nnc(SCc3ccccc3F)s2)c1=O,-1%,-2%
CS(=O)(=O)NCCSCc1ccc(Cl)cc1,-1%,-17%
CCCC1=NN2C(=N)/C(=C\c3cc(C)n(-c4cc(C)cc(C)c4)c3C)C(=O)N=C2S1,i,-11%
Cc1cc(C)c(C#N)c(SCc2nc3ccccc3c(=O)[nH]2)n1,-19%,-19%
c1ccc(CN(Cc2ccco2)C(c2ccncc2)c2nnnn2C2CCCC2)cc1 (centres undefined),i,6%
CC1=CC(=C(C#N)c2nc3ccccc3s2)C=C(C)N1Cc1ccco1,-15%,-3%
CCOC(=O)c1ccccc1NC(=O)NCc1c(-n2cccc2)sc2c1CCCC2,-5%,-15%
Cc1nc2ccccc2c(=O)n1/N=C/C=C/c1ccccc1,i,-13%
CCCCn1c(N)c(N(CCOC)C(=O)CN(C)S(=O)(=O)c2ccc(Cl)cc2)c(=O)[nH]c1=O,-19%,-16%
Cc1ccccc1-c1cc(Nc2ccc(F)cc2)ncn1,i,0%
CCOc1ccc(C)cc1S(=O)(=O)Nc1cccnc1,-24%,-9%
CCc1ccccc1NC(=O)Nc1ccc2c(c1)N(CC)C(=O)c1ccccc1S2,?,?
Cc1cc(C)cc(N(CC(=O)NCc2ccccc2Cl)S(=O)(=O)c2c(C)noc2C)c1,-3%,0%
COC(=O)C(Cc1c[nH]c2ccccc12)NC(=O)CCNC(=O)c1ccco1 (centres undefined),-13%,-18%
Cc1ccc(C(=O)NCCN(C)C)c(C)c1,-16%,-6%
COC(=O)c1[nH]c(C)c(/C(O)=C2\C(=O)C(=O)N(CCN(C)C)C2c2ccc(C)o2)c1C (centres undefined),.,-9%
COC(=O)c1cc(NC2c3ccccc3C(=O)N2c2ccc(Cl)cn2)cc(C(=O)OC)c1 (centres undefined),-1%,6%
C=CCn1c(C)c(C(C)=O)c(N2CCCC2)nc1=S,-9%,-22%
Cc1ccc(NC(=O)CN2C(=O)NC(C)(c3ccccc3)C2=O)c(C)c1 (centres undefined),-21%,-17%
CSc1nc(=S)cc(C)[nH]1,?,-15%
N#Cc1ccsc1NC(=O)C1CCCN1S(=O)(=O)c1cccs1 (centres undefined),i,-11%
CCC(C)(C)NC(=O)c1ccc(Sc2nncn2C)c([N+](=O)[O-])c1,-6%,-13%
COc1cccc(C(=O)N(Cc2ccc(C)o2)C2CCS(=O)(=O)C2)c1 (centres undefined),-9%,-7%
O=C(COC(=O)c1cc(Br)ccc1O)NCC1CCCO1 (centres undefined),-9%,-9%
O=C(NCc1cccnc1)/C(=C/c1ccc([N+](=O)[O-])cc1)NC(=O)c1ccccc1,i,-6%
COc1ccc(CNC(=O)NS(=O)(=O)c2ccc(C)cc2)cc1,-12%,-11%
CN(C(=O)c1ccccc1C(=O)c1ccccc1)C1CCS(=O)(=O)C1 (centres undefined),-3%,-10%
CN1CC(=O)N/C1=N\C(=O)Nc1ccc2c(c1)N(C)C(=O)CS2,-15%,1%
C[C@@H]1Cn2cnc(C(=O)Nc3ccc(CNC(=O)OC(C)(C)C)cc3)c2C(=O)N1,?,?
N#C/C(=C/c1ccc([N+](=O)[O-])cc1)C(N)=O,i,-13%

# A draw from above in order of molecular weight, rising.
SMILES,Vaccinia mCherry,Vaccinia Venus
N#C/C(=C/c1ccc([N+](=O)[O-])cc1)C(N)=O,i,-13%
Cc1ccc(C(=O)NCCN(C)C)c(C)c1,-16%,-6%
Cc1ccc(NC(=O)Nn2cnnc2)cc1Cl,-4%,-13%
O=C(C[n+]1ccccc1)Nc1nc2ccccc2s1,-13%,-3%
Cc1ccccc1/C=N/N1CCN(c2ccccc2)CC1,0%,-10%
CCOC(=O)N1CCC(Nc2c(OCC)c(=O)c2=O)CC1,-11%,-6%
CCCNC(=O)c1ccccc1SCc1c(C)noc1C,i,8%
O=C(Cc1c(F)cccc1Cl)Nc1ncc([N+](=O)[O-])s1,-7%,-27%
COc1ccc(CN(C)c2ccc(-c3nc(C)no3)cc2[N+](=O)[O-])cc1,-18%,-18%
O=C(COC(=O)c1cc(Br)ccc1O)NCC1CCCO1 (centres undefined),-9%,-9%
CC(C)(C)c1ccc(COC(=O)CNC(=O)CNC(=O)Cc2ccccc2)cc1,-13%,-1%
CCOc1ccc(CC(=O)Nc2cccc(-c3nc4cccnc4s3)c2C)cc1,-23%,-17%
COC(=O)c1[nH]c(C)c(/C(O)=C2\C(=O)C(=O)N(CCN(C)C)C2c2ccc(C)o2)c1C (centres undefined),.,-9%
CNC(=O)C1CCC(Cn2c(=O)c3sccc3n(CC(=O)N3CCCC3)c2=O)CC1 (centres undefined),2%,-3%
Cc1nc(NC(=O)CC(C)C)sc1-c1csc(Nc2ccc(Cl)cc2Cl)n1,-9%,-24%
